Rango dissoc inh = inhibition of RanGTP-driven Rango-importin beta dissociation; O95149+P62826; Biochemical FRET Rango-importin beta, RanGTP-induced dissociation; Potency, µM (doses to about 46.1 µM), without a hit: at the highest dose activity change, negative = inhibition; hit rate 0.071% among 340,000; AID 540253; active means falling FRET ratio curve, often poorly fitted, with flat reads before Ran was added; inconclusive means other falling curves, or compound fluorescence or quenching; inactive means flat or rising ratio curve;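 further: potency means the concentration at half of the fitted maximal effect; % of control where 0% means no effect; nearly all actives have a fitted effect of over 45% in size; -100% = wells without RanGTP and RCC1; the record marks most hits as doubtful in a second field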
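Compounds preincubate 5 min with complex of recombinant Rango and importin beta in PBS with 1 mM DTT. Ran (0.6 uM) loaded with 2 mM GTP plus 0.2 uM RCC1 starts dissociation; FRET is recorded 45 min later.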
miR-21 reporter = raises the signal of a miR-21 reporter; HeLa miR-21 FLuc reporter, luciferase, 48 h; Potency, µM (highest dose often 38.3 µM), for inactives: at the highest dose reporter change, positive = more light; 340,000 tested, under 10 active; AID 2288; active = well fitted rising curve with a large enough effect; inconclusive = small, poorly fitted or top-dose-only effect; inactive = no such curve, though single readings can be large or run the other way;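 further: % of control where 0% means no effect; miR-21 action dims this reporter so a rising signal means less miR-21 action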
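Compounds were titrated across several concentrations (up to approximately 40 uM) and incubated 48 hours with HeLa miR-21-FLuc reporter cells (miR-21 target sequence downstream of FLuc, endogenous miR-21). Readout was firefly luciferase luminescence after lytic detection reagent.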
GLA inh pH 4.5 = blocks human alpha-galactosidase A at pH 4.5. purified enzyme, 4-MU-alpha-Gal fluorescence, pH 4.5. 230,000 tested, under 10 active. activity change, negative = inhibition, % at 105 µM. P06280; inconclusive = small, poorly fitted or top-dose-only inhibition, or a rising curve; inactive = flat fitted curve, though single readings scatter; no compound was filed as active;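 further: 0% = full activity with enzyme and -100% = basal without enzyme; dose as in the result columns while the protocol names 77 µM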
Target sequence (P06280 whole entry, looked up): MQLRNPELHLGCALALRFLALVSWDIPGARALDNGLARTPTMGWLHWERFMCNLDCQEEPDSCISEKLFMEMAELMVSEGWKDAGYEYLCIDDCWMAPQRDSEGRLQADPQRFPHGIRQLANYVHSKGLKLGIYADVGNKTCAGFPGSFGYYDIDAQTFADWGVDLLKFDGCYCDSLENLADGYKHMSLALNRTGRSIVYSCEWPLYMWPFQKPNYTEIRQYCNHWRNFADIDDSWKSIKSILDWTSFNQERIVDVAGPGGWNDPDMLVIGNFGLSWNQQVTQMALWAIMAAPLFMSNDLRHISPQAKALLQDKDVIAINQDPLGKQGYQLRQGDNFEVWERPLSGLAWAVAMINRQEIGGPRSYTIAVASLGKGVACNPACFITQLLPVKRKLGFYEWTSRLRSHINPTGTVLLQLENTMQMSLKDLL
Rango-impB inh = Rango-importin beta binding inhibition. Q14974. Rango CFP/YFP FRET sensor + importin beta, 45 min. Potency, µM (series often up to 92.2 µM), without a hit: top-dose inhibition of complex formation. hit rate 0.031% among 340,000; active = rising FRET ratio curve, often small or poorly fitted; inconclusive = mostly compound fluorescence or quenching in the first reads; inactive = flat curves in all reads;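 further: potency means the concentration at half of the fitted maximal effect; 0% = DMSO wells and 100% = buffer wells lacking importin beta; nearly all actives have a fitted effect of over 15% in size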
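Inhibition scored from the CFP 486 nm/YFP 530 nm FRET ratio 45 min after adding 0.125 microM importin beta to 50 nM Rango biosensor preincubated 5 min with compound (room temperature, PBS with DTT, Tween-20, BSA). No-importin wells as positive control.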
The depositor's hits bear a star; ? = inconclusive; · = no result given; & = joins results of further samples; [ ] = another dose, or the depositor's remark. This is a subset. The share of hits here may be higher or lower than overall.

Rango dissoc inh	miR-21 reporter	GLA inh pH 4.5	Rango-impB inh	Molecule
1%	3%	·	-0.3%	COCCNC(=O)C(c1ccc(F)cc1)N(Cc1ccco1)C(=O)CCC(=O)Nc1ccccn1 (stereo unspecified)
4%	-3%	5	4.3%	Cc1cc(C)n(-c2ccc(C(=O)OCC(=O)Nc3ccccc3[N+](=O)[O-])cc2)n1
20%	1%	-5	6.9%	O=C1/C(=C/c2ccccn2)SC(=S)N1NS(=O)(=O)c1ccccc1
13%	16%	·	0.0%	CCOc1ccc2[nH]c(C(=O)N/N=C/c3ccc(OC)cc3)cc2c1
-13%	-14%	9	-0.4%	O=C(Nc1nnc(-c2ccccn2)o1)c1cccc(Cl)c1
16%	1%	·	1.3%	CCOc1ccccc1N1CCN(C(=O)c2cc(-c3cccnc3)nc3c(Cl)cccc23)CC1
21%	-1%	-4	1.0%	COc1ccc(S(=O)(=O)Cc2ccc(C(=O)N3CCN(Cc4ccccc4)CC3)o2)cc1
3%	-3%	-2	-0.5%	O=C(CCn1c(SCC(=O)NCc2ccco2)nc2ccccc2c1=O)NCCc1ccccc1
4%	0%	12	-5.3%	Cn1c(=O)n(C)c2cc(S(=O)(=O)NCCOCCO)ccc21
11%	-27%	11	5.4%	Cc1c2cn[nH]c(=O)c2c(C)n1Cc1ccc(F)cc1
-2%	-2%	-3	?	O=C(CCC(=O)N1CCN(S(=O)(=O)c2ccccc2)CC1)NC1CCCc2ccccc21 (stereo unspecified)
6%	0%	7	-1.6%	O=C(NCc1nnc2n1CCCCC2)c1ccc(Cl)cc1Cl
5%	8%	-4	2.9%	O=[N+]([O-])c1c(NCCCO)cc(Sc2nc3ccccc3s2)c2nonc12
-2%	19%	-4	3.2%	CC(C)c1cc(C(=O)N2CCCC(CCC(=O)N3CCN(c4ccccn4)CC3)C2)no1 (stereo unspecified)
10%	29%	-11	2.5%	CCOC(=O)c1c(NC(=O)CN2CCN(C(=O)c3ccco3)CC2)sc2c1CCCC2
-10%	-3%	-2	0.9%	Cc1oc2nc(SCC(=O)NCc3cccnc3)nc(N)c2c1C
1%	0%	·	0.0%	CCOC(=O)C1CCN(S(=O)(=O)c2ccccc2)CC1
1%	-6%	-14	-2.9%	COC(=O)/C=C(\C)NC(=O)c1cccs1
-15%	-34%	4	5.2%	S=C(Nc1ccccc1)Nc1ccc(Cl)cc1Cl
-4%	-1%	-12	2.6%	O=C(O)CCSc1nnc(-c2ccccc2)n1-c1ccccc1
·	-43%	4	·	CCc1ccc(Nc2nnc(SCC(=O)c3ccc4c(c3)NC(=O)CO4)s2)cc1
-14%	-9%	-9	2.8%	CCC(=O)c1ccccc1OCCCn1cncn1
0%&-8%	-26%&-16%	7&7	0.7%&-1.9%	CCOc1c(C)cc(-c2ncccc2O)cc1C
4%	-5%	4	-0.9%	COCCCn1c(SCC(=O)N2CCc3ccccc32)nnc1-c1ccco1
8%	-3%	2	-3.4%	CN(C)C(=O)NC1CCCCCCCCCCC1
1%	7%	·	-0.2%	COC(=O)c1ccc(C)c(NC(=O)C(CCSC)NC(=O)c2cc(OC)c(OC)c(OC)c2)c1 (stereo unspecified)
0%	9%	0	-2.6%	COc1ccc2ccccc2c1/C=N/O
-19%	-2%	3	0.5%	CCOc1ccc(NC(=O)CSc2nnc(CNC(=O)c3ccco3)o2)cc1
5%	3%	-22	-1.8%	COc1ccccc1NC(=O)CSc1nc(O)cc(=O)n1-c1ccccc1OC
7%	-14%	-1	0.3%	CSc1nc(NC(C)(C)C)nc(Oc2ccc(=O)[nH]n2)n1
-8%	·	·	-0.3%	Cc1n[nH]c(=O)c2c(NC(=O)COC(=O)/C=C/c3cccc(C(F)(F)F)c3)oc(C)c12
-3%	-20%	-5	-0.3%	Cc1cc(-c2n[nH]c(=S)n2/N=C/c2ccc(Br)s2)n[nH]1
-21%	-3%	4	1.8%	CN1CCN(C(=O)C2=C[C@H](c3ccccc3)C[C@H](OCc3ccc(CO)cc3)O2)CC1
?	·	·	?	CC(=NNC(=O)c1ccncc1)c1ccc2ccccc2c1O
0%	·	·	-0.8%	Cc1c(C(=O)OC(C)C)sc(NC(=O)c2cnccn2)c1C(=O)OC(C)C
3%	-59%	6	-4.8%	O=C(CSc1ccccn1)Nc1nc2ccccc2s1
·	-57%	2	·	Cc1cccc(NC(=O)c2cnc3sccn3c2=O)c1C
-13%	·	·	1.5%	Cc1csc(SCC(=O)NC(=O)c2ccccc2)n1
0%	3%	-1[21.1 µM]	1.0%	CCOc1ccccc1NC(=S)NCc1cccn1C
-1%	-1%	0	-2.2%	COC(=O)c1c(NC(=O)CSc2nc3ccccc3c(=O)n2Cc2ccco2)sc(C)c1C
0%	-1%	4	-0.7%	Cc1nc2c(o1)CCc1ccccc1C2O (stereo unspecified)
2%	·	·	1.6%	O=C(c1cc(-c2ccc(Br)cc2)nc2ccccc12)N1CCC1
5%	-3%	·	1.7%	Cc1cc(C)c2c(-c3ccc(F)cc3)c(C#N)c(=O)n(C)c2n1
0%	-66%	·	-2.2%	O=C(CCCC(=O)c1ccc(F)cc1)c1ccc(F)cc1
9%	-39%	·	3.0%	Cc1cccc(N=Nc2c(N)n[nH]c2N)c1
-2%	0%	-8	-2.3%	CCOc1c(CNCc2ccc(C(=O)O)cc2)cccc1OC
-9%	-2%	·	-1.1%	O=C(NCCc1ccccc1)C(=O)NCC1OCCCN1S(=O)(=O)c1ccc(F)cc1 (stereo unspecified)
-4%	-1%	3	0.2%	CCCC[C@@H]1CNC(=S)N1CCCc1cc(OC)c(OC)c(OC)c1
1%	-13%	-1	1.1%	CN(NC1OC(=O)c2ccccc21)c1c([N+](=O)[O-])cc(C(F)(F)F)cc1[N+](=O)[O-] (stereo unspecified)
?	·	·	?	Cn1c(C=O)c(-c2ccc3cc[nH]c3c2)c2ccccc21
-20%	24%	-2[21.1 µM]	-0.2%	COc1ccc(N/N=C(\C#N)C(=N)SCc2ccccc2)cc1
-22%	·	·	7.8%	O=C(CN1C(=O)c2ccccc2S1(=O)=O)Nc1ncccn1
-4%	·	·	3.3%	CC(C)C[C@@H](CN)NC(=O)c1nc[nH]c1C(=O)N[C@@H](CC(C)C)C(=O)CNC[C@H](C)NC(=O)c1nc[nH]c1C(=O)N[C@@H](CC(=O)O)C(=O)O
-5%	-1%	2	4.4%	CCOC(=O)C1=C(Cn2cnc3ccccc32)NC(=O)NC1c1ccc(OC)cc1 (stereo unspecified)
-10%	-4%	?	-1.1%	O=C1c2cnc3ncnn3c2CC2c3ccccc3CCN12 (stereo unspecified)
-9%	26%	5	5.1%	CCN(CC)c1ccc(-n2c(C)c(C(C)=O)c(C(C)=O)c2C)cc1

(continued)
Rango dissoc inh	miR-21 reporter	GLA inh pH 4.5	Rango-impB inh	Molecule
6%	-1%	5	-3.1%	COc1cc(NC(=O)[C@@H](NC(=O)c2ccco2)C(C)C)c(OC)cc1NC(=O)c1ccccc1
-5%	-6%	-14	-3.7%	CCOc1ccc(Cl)cc1CSc1n[nH]c(CC)n1
15%	-15%	·	0.1%	CCC(=O)Nc1ccc(C(=O)NNC(=O)c2cccc(C)c2)cc1
1%	-10%	-2	-1.2%	O=C(CCN1C(=O)/C(=C/c2ccc3c(c2)OCO3)SC1=S)Nc1ccccc1
-1%	-35%	·	0.8%	Cc1ccc(OCC(=O)NC2CCCCCC2)cc1C
3%	0%	-6	-4.5%	O=C(Oc1ccc(N(Cc2cccs2)C2=NS(=O)(=O)c3ccccc32)cc1)c1ccccc1
-2%	1%	2	3.2%	O=C(NCC1(c2ccccc2)CCCC1)C(=O)N1CCOCC1
-7%	-23%	-6	-1.8%	O=C(CSc1ccccn1)Nc1nc2c(ccc3ccccc32)s1

A draw from above in order of molar mass, highest first.
Rango dissoc inh	miR-21 reporter	GLA inh pH 4.5	Rango-impB inh	Molecule
-2%	-2%	-3	?	O=C(CCC(=O)N1CCN(S(=O)(=O)c2ccccc2)CC1)NC1CCCc2ccccc21 (stereo unspecified)
·	-43%	4	·	CCc1ccc(Nc2nnc(SCC(=O)c3ccc4c(c3)NC(=O)CO4)s2)cc1
-21%	-3%	4	1.8%	CN1CCN(C(=O)C2=C[C@H](c3ccccc3)C[C@H](OCc3ccc(CO)cc3)O2)CC1
0%	·	·	-0.8%	Cc1c(C(=O)OC(C)C)sc(NC(=O)c2cnccn2)c1C(=O)OC(C)C
6%	0%	7	-1.6%	O=C(NCc1nnc2n1CCCCC2)c1ccc(Cl)cc1Cl
-10%	-4%	?	-1.1%	O=C1c2cnc3ncnn3c2CC2c3ccccc3CCN12 (stereo unspecified)
1%	-6%	-14	-2.9%	COC(=O)/C=C(\C)NC(=O)c1cccs1

More compounds follow:
Rango dissoc inh	miR-21 reporter	GLA inh pH 4.5	Rango-impB inh	Molecule
28%	·	·	-1.8%	COC(=O)[C@]1(C)N[C@H](CN(C)C(=O)Nc2ccc(F)cc2)[C@@H]2C(=O)N(C)C(=O)[C@@H]21
16%	-12%	·	2.0%	COCCCNC(=O)COc1ccc2oc3c(c2c1)CCCC3
-13%	5%	·	2.5%	CC(C)Oc1ccc(CCNC(=O)C2CCC(=O)N(C3CCCCCC3)C2)cc1 (stereo unspecified)
5%	·	·	-2.6%	O=S(=O)(c1ccc2c(c1)OCCO2)N1CCN(S(=O)(=O)c2ccccn2)CC1
-4%	0%	4	0.3%	COc1ccc(N/N=C(/C#N)S(=O)(=O)C(C)(C)C)cc1
-13%	-30%	-2	-5.3%	Cc1cccc(OCCSc2nncn2C)c1
0%	2%	0	-4.3%	C=CCOc1c(Br)cc(CNc2ccc(NC(=O)C(C)C)c(OC)c2)cc1OC
-5%	-1%	-10	0.9%	CCCn1c(SCC(=O)NCCc2ccccc2)nnc1C(C)C
6%	21%	0	0.3%	COc1ccccc1NS(=O)(=O)c1cc(NC(=O)Nc2ccc(Cl)cc2Cl)ccc1N1CCCCC1
?	3%	·	?	CCn1nc(NC(=O)CC(C)C)c2cc3cccc(C)c3nc21
-12%	9%	1	?	CC1CCN(S(=O)(=O)c2ccc(NC(=O)Cn3nnc(-c4ccccc4F)n3)cc2)CC1
?	-1%	3	-3.4%	CCC(=O)Nc1nc(OC)cc(OC)n1
-1%	-8%	·	0.2%	COCc1ccc(CN2CCCC(C(=O)Nc3ccc(-c4cscn4)cc3)C2)o1 (stereo unspecified)
-4%	-2%	-12	-2.3%	Cc1ccccc1CCN(CC(=O)NC1CCCCC1)C(=O)c1csnn1
1%	11%	·	-1.9%	COc1ccc(CCNC(=O)CSc2ccc(NC(C)=O)cc2)cc1OC
-3%	-2%	-19	0.8%	COc1cccc(NC(=S)N2CCN(c3ccc([N+](=O)[O-])cc3)CC2)c1
13%	-5%	6	-1.8%	CCN(CC)c1ccc(C(=O)NN)cc1
-7%	-9%	4	1.1%	CCn1c(CNc2ccc(C)cc2)nnc1SCC(=O)NCc1ccccc1
-14%	-4%	5	2.3%	COC(=O)C(O)(CC(=O)c1ccc(OC)cc1)C(F)(F)F (stereo unspecified)
-18%	1%	-5	1.0%	CCn1c(=S)sc2c(=O)n(-c3ccccc3)c(=S)[nH]c21
12%	-5%	5	-0.7%	O=C(CN1C(=O)NC2(CCCc3ccccc32)C1=O)N1CCc2ccccc2C1 (stereo unspecified)
11%	20%	·	1.8%	CCOc1ccccc1CNC(=O)Cn1ccc2cc(S(=O)(=O)N3CCCCCC3)ccc21
-1%	·	·	0.0%	O=C(NCC(c1ccco1)N1CCOCC1)c1ccccc1 (stereo unspecified)
-6%	-19%	5	-2.3%	COc1ccc(C(=O)OCc2nc(N)nc(Nc3ccccc3C)n2)cc1OC
-3%	-40%	5	9.1%	CC(C)C(=O)Nc1ccc(C(=O)Nc2nnc(C(C)C)s2)cc1
-9%	?	-5	12%	CC(C)(C)c1ccc(Oc2ccc(N)cc2)cc1
-1%	-24%	-23	0.2%	O=C(Nc1nnc(C2CC2)s1)c1cc([N+](=O)[O-])ccc1N1CCCCC1
-8%	1%	4	1.5%	CCCCn1c(SCC(=O)N(C)C2CCS(=O)(=O)C2)nc2cc(S(N)(=O)=O)ccc21 (stereo unspecified)
0%	4%	-4	-0.3%	CCN(CC)CCNc1ccnc2cc(Cl)ccc12
15%	-6%	·	-2.6%	COc1ccc(CNC(=S)Nc2ccccc2)cc1Cl

High-throughput results (PubChem)
